Screening results from PubChem BioAssay.
Polio RdRp inh: poliovirus RdRp elongation inhibitors, primary screen, biochemical, fluorescence polarization, total intensity; % elongation, % (compound at 16.7 µg/mL); hit rate 0.66% among 150,000; Genome polyprotein (Poliovirus type 1 (strain Mahoney)), P03300; poliovirus polymerase elongation; stronger effect = lower value; in the data active = % elongation below about 90%; also: some results filed as inactive read as strong as hits
Target sequence (P03300 1749-2209 limits assumed): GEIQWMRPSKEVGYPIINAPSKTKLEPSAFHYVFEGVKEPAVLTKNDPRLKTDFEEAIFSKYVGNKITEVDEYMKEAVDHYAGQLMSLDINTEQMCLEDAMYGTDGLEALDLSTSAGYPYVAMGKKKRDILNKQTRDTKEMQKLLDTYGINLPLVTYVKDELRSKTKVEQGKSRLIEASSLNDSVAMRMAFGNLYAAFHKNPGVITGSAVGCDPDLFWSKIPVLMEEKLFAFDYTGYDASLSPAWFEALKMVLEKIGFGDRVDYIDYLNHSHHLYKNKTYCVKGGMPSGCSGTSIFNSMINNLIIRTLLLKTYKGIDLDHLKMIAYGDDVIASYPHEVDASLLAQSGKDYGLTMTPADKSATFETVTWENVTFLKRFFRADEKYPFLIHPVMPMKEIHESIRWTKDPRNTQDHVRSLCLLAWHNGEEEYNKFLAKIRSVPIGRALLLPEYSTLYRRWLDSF
Polio RdRp inh intensity: also measured in Polio RdRp inh; calls as there; % elongation; measured here: total intensity read-out; formula for this scale not given here;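 total fluorescence in place of polarization; lower means less elongation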
Active calls of the source: *.

SMILES	Polio RdRp inh	Polio RdRp inh intensity
N#Cc1ccc(NC(=O)c2cc(-c3cccc(Cl)c3)on2)cc1	105	105
Cc1c(C(=O)Nc2cc(F)ccc2F)sc2nc(-c3ccc(F)cc3)cn12	104	98
COC(=O)c1sccc1S(=O)(=O)N(CC(=O)Nc1cc(F)ccc1F)c1ccc(C)c(C)c1	106	97
COc1ccc(Cn2cc(S(=O)(=O)c3ccc(Cl)cc3)c(=O)c3cc4c(cc32)OCO4)cc1	100	104
Cc1ccc(NC(=O)Cn2nc(C(F)(F)F)c3c2CCCC3)cc1C	109	112
CC(C)CC(=O)Nc1nnc(S(=O)(=O)N(C)c2ccc(Cl)cc2)s1	107	104
CCn1c(=O)cc(OCC(=O)Nc2cc(OC)c(OC)c(OC)c2)c2ccccc21	104	108
COc1cc(NS(=O)(=O)c2ccc3c(c2)CC(=O)N3)cc(OC)c1OC	102	103
COc1cccc(CNC(=O)c2oc3ccc4c(c3c2C)C(=O)CC(C)(C)O4)c1OC	117	115
Cn1cc(S(=O)(=O)N2CCOCC2)cc1C(=O)Nc1ccc(Cl)c(C(F)(F)F)c1	105	107
O=c1c2cc3c(cc2n(Cc2cccc(Cl)c2)c(=O)n1Cc1nc(-c2ccccc2)no1)OCO3	102	105
Cc1cc(C)cc(NC(=O)Cn2c(C(F)(F)F)nc3ccccc32)c1	99	102
CCCCOc1ccc(CNC(=O)c2cnc3sc(N4CCCCCC4)nn3c2=O)cc1	110	112
Cc1cccc(C(=O)N2CCc3cc(CNC(=O)COc4ccc(Cl)cc4)ccc32)c1	113	116
Cc1ccc(-c2c(C(=O)N3CCN(c4cccc(C)c4)C(C)C3)oc(=O)c3ccccc23)cc1 (stereo unspecified)	110	112
COC(=O)c1ccc(CSc2nc3c([nH]c4ccccc43)c(=O)n2-c2cccc(OC)c2)o1	111	114
COC(=O)c1sccc1S(=O)(=O)N(CC(=O)NCc1ccc(C)cc1)c1ccc(C)c(C)c1	105	105
NC(=O)Cn1c(=O)n(CCCCCC(=O)NCc2ccccc2)c(=O)c2sccc21	102	106
COc1ccc(C)cc1NC(=O)NC(C)c1c(-n2cccc2)sc(C)c1C (stereo unspecified)	109	108
CCN(CC)CCCNC(=O)c1sc2nc3n(c(=O)c2c1C)CCCCC3	114	109
CCN1C(=O)C(O)(c2c(C)[nH]c3ccccc23)c2ccccc21 (stereo unspecified)	108	106
Cc1cc2oc(C(=O)N(Cc3ccccc3F)C3CCS(=O)(=O)C3)c(C)c2cc1Cl (stereo unspecified)	107	105
COc1ccc(OC)c2sc(N3CCN(C(=O)C4COc5ccccc5O4)CC3)nc12 (stereo unspecified)	109	108
Cc1cn2c(=O)cc(COc3cccc(NC(=O)c4cccc(F)c4)c3)nc2s1	105	106
CCOc1ccc(N(CC)S(=O)(=O)N2CCCC(C(=O)Nc3ccc(OC)c(OC)c3)C2)cc1 (stereo unspecified)	100	97
Cc1ccc(CSc2nnc(-n3c(=O)c(C#N)cc4c(=O)n5cccc(C)c5nc43)s2)cc1	105	108
O=C(COc1ccccc1-c1nc(-c2ccccc2)no1)Nc1ccccc1[N+](=O)[O-]	111	117
COc1ccc(-c2cn3c(n2)sc2cc(C(=O)NCCC4=CCCCC4)ccc23)cc1	112	113
COc1cc(NS(=O)(=O)c2ccc3[nH]c(=O)[nH]c3c2)cc(OC)c1	104	108
Cc1cc(NC(=O)c2cc(-c3ccc(Cl)cc3)on2)nn1Cc1ccc(Cl)cc1	101	97
COc1cccc(N2CC(NC(=O)c3ccc(S(=O)(=O)N4CCOCC4)cc3)CC2=O)c1 (stereo unspecified)	111	100
CN(CC(=O)Nc1cccc(F)c1)S(=O)(=O)c1ccc2c(c1)n(C)c(=O)c(=O)n2C	101	103
CC1CCN(S(=O)(=O)c2ccc3c(c2)N(CC(=O)NCc2ccccc2Cl)C(=O)CS3)CC1	108	108
O=C(NCc1ccccc1Cl)c1ccccc1NC(=O)c1nsc2ccccc12	105	108
COC(=O)c1sc2cccc(F)c2c1S(=O)(=O)Nc1ccc(C)cc1Cl	112	116
Cc1ccc(NC(=O)Cn2c(=O)oc3cc(S(=O)(=O)N4CCCCC4)ccc32)c(C)c1	105	104
Cc1cc(C)c(NC(=O)COCc2cc(-c3cccs3)on2)c(C)c1	105	112
COc1ccc(-n2c(=O)c3c4c(sc3n(Cc3ccccc3C)c2=O)CCCC4)c(OC)c1	106	108
O=C(CSc1nc(=O)[nH]c2c1CCCC2)NCc1ccccc1Cl	110	98
COc1ccc(-c2ccc(CCC(=O)O)n2CC(=O)Nc2cccc(Cl)c2C)cc1	106	109

Fetched by compound from the list above, 6 records:
SMILES	Polio RdRp inh	Polio RdRp inh intensity
O=C(CSc1nc(=O)[nH]c2c1CCCC2)NCc1ccccc1Cl	110	98
COc1ccc(-n2c(=O)c3c4c(sc3n(Cc3ccccc3C)c2=O)CCCC4)c(OC)c1	106	108
COc1ccc(-c2ccc(CCC(=O)O)n2CC(=O)Nc2cccc(Cl)c2C)cc1	106	109
COC(=O)c1sc2cccc(F)c2c1S(=O)(=O)Nc1ccc(C)cc1Cl	112	116
Cc1cc(C)c(NC(=O)COCc2cc(-c3cccs3)on2)c(C)c1	105	112
Cc1ccc(NC(=O)Cn2c(=O)oc3cc(S(=O)(=O)N4CCCCC4)ccc32)c(C)c1	105	104

More structures follow:
SMILES	Polio RdRp inh	Polio RdRp inh intensity
Cc1nnc(N2C(=O)c3oc4ccccc4c(=O)c3C2c2ccc(C(C)(C)C)cc2)s1 (stereo unspecified)	104	108
CCC(C)n1c(=N)c(S(=O)(=O)c2ccc(C)cc2)cc2c(=O)n3cc(C)ccc3nc21 (stereo unspecified)	104	116
CC(=O)c1ccc(N2CCN(S(=O)(=O)c3ccc(-c4cc(C(F)(F)F)on4)s3)CC2)cc1	107	108
CCc1ccc(OCC(=O)Nc2cc(-c3ccc(C)cc3)no2)cc1	107	105
Cc1ccc(OCC(=O)N2CCN(CCc3ccncc3)CC2)cc1	105	111
COc1ccccc1CNC(=O)Cn1c(=O)nc(-c2ccccc2F)c2cc(Cl)ccc21	106	100
CCOC(=O)CNC(=O)c1cc2c(=O)oc3ccccc3c2s1	102	101
CCCNC(=O)C1CCC(Cn2c(=O)c3sccc3n(CC(=O)NCc3cccc(OC)c3OC)c2=O)CC1 (stereo unspecified)	108	106
Cc1nn(C)c2c1c(C(F)(F)F)cc(=O)n2CC(=O)NCc1ccccc1Cl	113	109
COc1ccc(NC(=O)C2CCCN(S(=O)(=O)c3c(C)[nH]c(=O)[nH]c3=O)C2)cc1OC (stereo unspecified)	106	106
Cc1ccc(NC(=O)CN2C(=O)C3(SCC(=O)N3c3cccc(Cl)c3)c3ccccc32)cc1C (stereo unspecified)	105	108
CCc1ccc(Sc2cc(C(=O)NCc3ccccc3OC)c3ccccc3n2)cc1	110	104
COc1ccc(-c2nc3ccc(C(=O)NCc4ccccc4)cc3nc2-c2ccc(OC)cc2)cc1	105	106
CCOc1ccc(NC(=O)Cn2cc(C(=O)c3ccc(CC)cc3)c(=O)c3cc(C)ccc32)cc1	104	105
O=C(c1ccccc1Cl)N(Cc1ccco1)c1ccccn1	103	101
Cc1cccc(CC(=O)Nc2cccc(-c3nc4cccnc4s3)c2)c1	110	96
COc1cccc(C(=O)Nc2ccc3nc(N4CCC(C)CC4)cc(C)c3c2)c1	105	106
Cc1ccccc1NC(=O)CSc1nc(-c2ccccc2)cn1-c1ccccc1F	115	109
O=C(Nc1nnc(S(=O)(=O)N2CCc3ccccc32)s1)c1cccc(Cl)c1	102	108
O=C(CSc1nc2c([nH]c3ccccc32)c(=O)n1-c1cccc(Cl)c1)N1CCc2ccccc21	110	110
CCC(NC(=O)Nc1cc(OC)ccc1OC)c1c(-n2cccc2)sc2c1CCN(CC)C2 (stereo unspecified)	110	116
O=C(Nc1ccc(Br)cc1)c1ccc(F)c(S(=O)(=O)NC2CCCCCC2)c1	109	105
CCOc1ccccc1NC(=O)COC(=O)c1cn(CC)c2nc(C)ccc2c1=O	107	106
O=C(COc1ccc(Cl)cc1)N(Cc1ccco1)c1ccccn1	108	104
Cc1ccc(NC(=O)c2sc(-n3nc(C)c(Cc4ccc5c(c4)OCO5)c3C)nc2C)cc1C	100	99
Cc1ccc(NC(=O)CSc2nc3ccccc3c3nc(CCc4c(C)n[nH]c4C)nn23)c(C)c1	107	115
COc1ccc(-c2nc3ccccc3o2)cc1NC(=O)C(C)(C)Oc1ccc(Br)cc1	103	103
COc1cccc(Cn2c(SCC(=O)N(C)c3ccccc3)nc3ccccc32)c1	106	111
Cc1ccc(C(=O)Nc2ccccc2)cc1S(=O)(=O)Nc1ccccc1	107	110
Cc1cc(C)cc(NC(=O)CSc2nncn3c2cc2occc23)c1	106	110
COC(=O)c1c(SCC(=O)Nc2ccccc2C(F)(F)F)[nH]c2ccc(Cl)cc2c1=O	109	107
CCC(C)Nc1oc(-c2ccc(COc3ccc(Cl)cc3)o2)nc1C#N (stereo unspecified)	103	106
O=C(CSc1nnc2[nH]c(=O)cc(-c3ccccc3)n12)Nc1cc(C(F)(F)F)ccc1Cl	108	110
Cc1cccc(Cn2c(=O)n(CC3CCC(C(=O)N4CCOCC4)CC3)c(=O)c3sccc32)c1 (stereo unspecified)	107	100
COc1ccc(OC)c(CCNC(=O)CCCn2c(=O)c3cccn3c3cccnc32)c1	111	111
Cn1cc(C(=O)O)c(=O)c2cc(S(=O)(=O)N3CCCCC3)ccc21	101	109
CCOC(=O)c1ccc2c(c1)sc1nc(-c3ccc(OCC)cc3)cn12	105	110
COc1ccc(S(=O)(=O)Nc2ccc(O)c(Sc3nc4ccccc4s3)c2)cc1	103	103
CCOC(=O)c1cc(-c2ccc(OC)cc2)nn1Cc1ccccc1	106	102
O=C(Cc1csc2ccccc12)NCc1ccc(F)cc1	106	108
COc1ccc(C2C(=O)N(C3CCCCCC3)CC(=O)N2Cc2ccc(C)cc2)cc1OC (stereo unspecified)	108	105
Cc1ccc(NC(=O)N2CCN(c3cc(-c4noc(C)n4)ccc3C)CC2)c(F)c1	106	116
CC(=O)c1cccc(Nc2ccc3cc(S(=O)(=O)N4CCC(C)CC4)ccc3n2)c1	109	116
Cc1ccc(NC(=O)C2CCCN2S(=O)(=O)c2ccc3c(c2)CCCC(=O)N3)cc1C (stereo unspecified)	104	108
CCN(Cc1ccccc1)C(=O)CN1C(=O)COc2ccc(S(=O)(=O)N(CC)CC)cc21	101	103
COc1ccc(OC)c(-c2noc(CSc3nnc(-c4ccccc4)n3-c3ccccc3)n2)c1	109	117
Cc1cc(C)c(/C=C/c2onc(C)c2S(=O)(=O)N2CCC(C(=O)NCCc3ccccc3)CC2)c(C)c1	111	113
O=C(CCC1N=C2c3ccccc3N=C(SCc3cccc(Cl)c3)N2C1=O)N1CCN(c2ccccc2)CC1 (stereo unspecified)	113	116
CN(C1CCCCC1)S(=O)(=O)c1ccc2c(c1)c(=O)c(C(=O)N1CCN(c3ccc(F)cc3)CC1)cn2C	103	102
CC(=O)c1cccc(NC(=O)c2nc(-c3ccccc3)n(-c3ccccc3)n2)c1	103	107

Gathered by group: the entries above with bromine (two)
SMILES	Polio RdRp inh	Polio RdRp inh intensity
O=C(Nc1ccc(Br)cc1)c1ccc(F)c(S(=O)(=O)NC2CCCCCC2)c1	109	105
COc1ccc(-c2nc3ccccc3o2)cc1NC(=O)C(C)(C)Oc1ccc(Br)cc1	103	103

Next results follow.
SMILES	Polio RdRp inh	Polio RdRp inh intensity
COc1ccc(OC)c(NC(=O)c2c(N3CCCC3=O)c3cc(OC)ccc3n2C)c1	101	107
CCN1CCN(c2ncnc3c2cnn3-c2ccc(F)cc2)CC1	106	104
COc1ccc(-c2nc3c(c(SCC(=O)N4CCCCC4)n2)Cc2cc(C)ccc2O3)cc1	110	113
CCOc1cc(CNC(=O)c2ccc3c(c2)N(C)C(=O)C2CCCCN32)cc(OCC)c1OCC (stereo unspecified)	104	93
Cc1ccc2c(CC(=O)N(Cc3ccc(N(C)C)cc3)Cc3ccco3)coc2c1C	117	119
O=C(CSc1nc(-c2ccccc2)cn1-c1ccccc1)Nc1ccccc1	109	111
Cc1c(Cl)ccc2sc(N3CCN(C(=O)CCS(=O)(=O)c4ccc(F)cc4)CC3)nc12	102	105
COC(=O)c1cc(C)nc2c1c(=O)nc(SCc1cccc(C(F)(F)F)c1)n2C1CC1	98	106
COc1ccc(C(=O)NNc2ncnc3c2cnn3-c2cccc(Cl)c2)cc1OC	108	114
CCCN(CCC)C(=O)Cn1c(=O)n(CCCCCC(=O)NCc2ccc3c(c2)OCO3)c(=O)c2sccc21	105	109

One compound at a time (already shown).
CCOc1ccc(NC(=O)Cn2cc(C(=O)c3ccc(CC)cc3)c(=O)c3cc(C)ccc32)cc1 reads Polio RdRp inh = 104; Polio RdRp inh intensity = 105
CCOc1cc(CNC(=O)c2ccc3c(c2)N(C)C(=O)C2CCCCN32)cc(OCC)c1OCC (stereo unspecified) reads Polio RdRp inh = 104; Polio RdRp inh intensity = 93

Further results follow.
SMILES	Polio RdRp inh	Polio RdRp inh intensity
Cc1ccccc1NC(=O)c1ccc2[nH]c(C)c(C)c2c1	109	110
CC(C)c1ccc(NC(=O)C2CCCN(S(=O)(=O)c3cccc4nonc34)C2)cc1 (stereo unspecified)	105	108
CC1=C(c2ccc(Cl)cc2)S(=O)(=O)NC1=NCc1ccc(C)cc1	107	110
Cc1ccc(C2c3c(-c4ccccc4O)n[nH]c3C(=O)N2CCCO)cc1 (stereo unspecified)	103	102
CC(=O)Nc1ccc(NC(=O)CCNS(=O)(=O)c2cccc3nsnc23)cc1	105	106
CC(=O)c1ccc(NC(=O)CC(c2cccs2)N2Cc3ccccc3C2=O)cc1 (stereo unspecified)	108	114

A portion of the library; count on the stated rates, not on these rows.
